# CSC inhib – cancer stem cell inhibition; cancer stem cell-like cells viability, luminescence; inhibition, % at 7.5 µM; 300,000 tested, 1.1% active; AID 2717;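 active = mean at 75% or more and at least half the replicates too; inconclusive = mean and replicates disagree; tested in HMLE shEcad cells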;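 note: 0% = median of negative and 100% = median of positive control wells; the first replicate is given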
# PABP FP inh – blocks human PABP binding to poly(A) RNA; inhibition, % at 35 µM; 290,000 tested, 1% active; fluorescence polarization; AID 2014; P11940;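 active = 50% or more with normal probe brightness, or confirmed in later tests; inconclusive = above 50% with abnormal brightness, or retests that disagree; inactive = below 50% or failed in later tests; about a fifth of its hits are not listed in these tables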;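 note: calls also rest on retests at 20 µM and on dose response follow-up; controls were probe without protein and protein plus probe with vehicle; some compounds called inactive have numbers as strong as hits; many hits fall short of the cut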
# Rce1 inh – blocks yeast Ras-converting enzyme. Q03530. yeast membranes, quenched prenylated peptide cleavage fluorescence. calls only. 290,000 tested, 0.27% active;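 active = fall in fluorescence gain of 50% or more versus controls, with final raw signal at or below 3038400; inconclusive = same 50% fall but final raw signal above 3038400; inactive = fall in fluorescence gain under 50%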;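 note: plate controls were neutral control wells for no effect and wells lacking membranes for full effect; tested at 10 µM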
# Target sequence (Q03530 whole entry, looked up): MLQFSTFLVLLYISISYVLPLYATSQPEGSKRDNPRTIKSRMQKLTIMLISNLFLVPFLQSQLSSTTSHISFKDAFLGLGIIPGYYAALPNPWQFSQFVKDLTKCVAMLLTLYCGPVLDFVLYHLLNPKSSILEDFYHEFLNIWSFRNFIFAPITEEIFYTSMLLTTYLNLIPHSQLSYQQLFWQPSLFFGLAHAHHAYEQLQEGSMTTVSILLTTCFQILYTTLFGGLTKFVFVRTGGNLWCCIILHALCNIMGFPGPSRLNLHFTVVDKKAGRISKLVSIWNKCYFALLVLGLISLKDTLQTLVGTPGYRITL
# UUG fidelity – yeast start codon fidelity modulation | 350,000 tested, 0.13% active | S. cerevisiae UUG-firefly luciferase reporter, luminescence/redox ratio | activity score, % at 18.7 µM;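 active = replicate mean at a twofold rise or more, about +100% in these data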;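 note: firefly luciferase made from a UUG start codon reports start codon fidelity; reporter light over untreated wells divided by growth signal over untreated wells; some hits fall short of that in this replicate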
# eIF4H inh – inhibitors of RNA binding by human eIF4H; AID 2012; 290,000 tested, 0.94% active; inhibition, % at 35 µM; eIF4H fluorescence polarization binding assay; Q15056;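 active = 50% or more with normal probe brightness, or confirmed in later tests; inconclusive = above 50% with abnormal brightness, or retests that disagree; inactive = below 50% or failed in later tests; about a fifth of its hits are not listed in these tables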;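 note: calls also rest on retests at 20 µM and on dose response follow-up; 0% = protein and probe with vehicle and 100% = probe without protein; strong numbers were not always called active; many hits fall short of the cut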
# MT1-MMP act inh – MT1-MMP (human) activation inhibition; GFP/RFP ratio change, % at 20 µM; HT1080 RFP-PRO-GFP cells, GFP/RFP ratio fluorescence, overnight; percent of plate control window, DMSO zero; 360,000 tested, 0.061% active; P50281;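 active = GFP/RFP ratio change of at least 30% with cell ATP level not reduced by more than half and red fluorescence within 50% of control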; note: strong numbers were not always called active
#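 Material – HT1080 RFP-PRO-GFP cells · Control set – DMSO wells and RFP-L50D-GFP cells · Incubation – overnight cell settling, then overnight compound exposure, 37 °C, 5% CO2 · Compound dosing – single-point 20 µM compound, 1% DMSO · Read-out – GFP/RFP fluorescence ratio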
# HIV Env fusion – inhibitors of HIV Env-mediated cell fusion. HeLa-JRFL Env/CEM21 cell fusion, luciferase. inhibition, % at 12.3 µM. 360,000 tested, 1.1% active. AID 651610;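 active = mean replicate inhibition score of at least 50 and every replicate individually at or above 50; inconclusive = only one of the two criteria met; inactive = mean below 50 and not all replicates reaching 50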;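 note: 0% = plate neutral controls and 100% = maraviroc near 300 nM; one replicate is shown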
# eIF4H inh retest – further read-out of eIF4H inh, marked with its call; inhibition, %; compound at 20 µM; confirmation average;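 mean of two retest wells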
# PABP FP inh retest – recorded beside PABP FP inh, whose call it bears; inhibition, %; compound at 20 µM; confirmation repeats;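 mean of two retest wells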
# MT1-MMP act inh RFP – further read-out of MT1-MMP act inh, marked with its call; RFP signal change, %; measured here: RFP expression control read;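 0 = vehicle wells; hits needed this value within 50% of zero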
# An asterisk follows results filed as active; i = inactive; ? = inconclusive; / = no result given.
SMILES,CSC inhib,PABP FP inh,Rce1 inh,UUG fidelity,eIF4H inh,MT1-MMP act inh,MT1-MMP act inh RFP,HIV Env fusion,others
CCOc1ccccc1Nc1nnc(SCC(=O)N2CCCC2)s1,0,-9,/,-12,-7,-5,-2,-142,
CSCC[C@H](NC(=O)c1cccc(S(=O)(=O)N2CCN(C)CC2)c1)c1nc2ccccc2[nH]1,-15,/,/,-7,/,-5,1,-19,
Clc1ccc(-c2ccc(C=Nc3ccc(N4CCOCC4)cc3)o2)c(Cl)c1,-3,-11,i,-37,4,-2,-3,4,
CCc1cc(C(=O)Nc2cc(S(=O)(=O)N(CC)CC)ccc2N2CCOCC2)sc1C,38,/,i,/,/,-5,-5,-8,
Cc1cc(C)c2nc(NC(=O)c3cccc(S(=O)(=O)N4CCc5ccccc54)c3)sc2c1,/,-4,i,-10,1,-42,-27,/,
Cn1c(C2CCCCC2)nc2c1c(=O)[nH]c(=O)n2Cc1ccccc1,-5,-6,i,/,-2,3,7,-4,
Cc1ccc(-n2ncc3c(NNC(=O)c4ccco4)ncnc32)cc1Cl,25,3,i,-16,12,3,6,-25,
COc1cccc(CNC(=S)Nc2ccc3c(c2)c(=O)n(C)n3Cc2ccc(F)cc2)c1,/,/,/,-27,/,1,-6,26,
CCc1ccc(CNn2cnnc2SCC(=O)NC(C)(C)C)cc1,-2,7,i,0,-7,-3,-1,-26,
CCN(CC)c1cc(C(F)(F)F)nc(-c2ccccn2)n1,-1,-8,i,-3,-13,5,0,-23,
NC(=O)CC(NC(=O)Cc1ccc(Br)cc1)c1ccc(NCc2ccccn2)c([N+](=O)[O-])c1 (stereo unspecified),-10,10,i,-17,11,3,1,4,
CCOC(=O)c1sc2nc(-c3ccco3)c3c(c2c1N)CC(C)(C)OC3,/,19,i,-12,31,-3,6,-19,
NC(=O)c1c(-c2ccc(Cl)cc2Cl)csc1NC(=O)Cc1ccccc1,5,-8,i,/,-7,-19,-35,46,
CCCCC(CC)C(=O)N1CCN(C(=O)c2ccco2)CC1 (stereo unspecified),/,2,i,/,-2,-1,3,12,
COc1ccccc1CNn1c(-c2cccc(C)c2)nc2ccccc2c1=O,0,1,i,-14,0,2,-4,29,
CCOC(=O)C(C)Sc1ncc(OC)c(=O)[nH]1 (stereo unspecified),12,-10,i,/,-2,0,10,-63,
Cc1ccc(S(=O)(=O)N(Cc2cccc(C(F)(F)F)c2)C(=O)N2CCN(C)CC2)cc1,-14,/,i,-6,/,-1,-1,3,
COc1ccc(CNC(=O)[C@H](C)NC(=O)C2CCN(S(=O)(=O)c3ccc(F)cc3)CC2)cc1,-7,8,i,7,-12,1,0,-3,
O=C(Nc1cccc(F)c1)Nc1ccc2c(c1)CCC2,/,-7,i,-27,-2,2,2,-112,
Cc1ccc(OCCNC(=O)CN2C(=O)NC3(CCCC3)C2=O)cc1,/,/,i,/,/,3,-1,7,
CC[C@H](C)/C=C(C)/C=C/C(=O)Cc1cc(O)c(C)c(O)c1C=O,9,?,i,-15,?,6,22,/,
CC(=O)Nc1ccc(NC(=O)CSc2ccc(-c3cccnc3)nn2)cc1,-8,3,i,45,17,-1,-1,-2,
O=C(CSC1=NS(=O)(=O)c2cc(F)ccc2N1)NCCc1ccccc1,5,/,i,/,/,-6,1,/,
CC(=O)c1c(C)[nH]c(C(=O)Nc2ccc(N3CCCCCC3)cc2)c1C,/,/,/,-12,/,-2,-3,35,
COc1ccc(-c2c(C#Cc3ccccc3)c3ccccc3n2C)cc1,4,28,i,-4,43,0,-3,-22,
# New compounds follow
SMILES,CSC inhib,PABP FP inh,Rce1 inh,UUG fidelity,eIF4H inh,MT1-MMP act inh,MT1-MMP act inh RFP,HIV Env fusion,others
O=C(CSc1nncs1)Nc1cc(-c2ccccc2)nn1-c1ccccc1,/,8,i,46,8,-1,2,12,
CS(=O)(=O)Nc1ccc(C2=NN(C(=O)C3CCCCC3)C(c3cccs3)C2)cc1 (stereo unspecified),-2,-3,i,-6,0,-7,-8,-12,
CCOC(=O)N1CCN(C(=O)c2cccc(S(=O)(=O)Nc3ccc(Br)cc3)c2)CC1,-2,/,i,12,/,-2,-4,0,
CC(C)Cc1nc2sc3c(=O)n(N)cnc3c2c2c1COC(C)(C)C2,-4,10,i,-22,-3,0,3,5,
CN(C)C1NC(=O)c2cc(-c3ccccc3)sc2N1 (stereo unspecified),-2,-9,i,-9,-4,-4,-6,/,
CSCC[C@H](NC(=O)[C@H]1CC[C@H](CNC(=O)[C@@H](N)Cc2ccccc2)CC1)C(=O)O,3,-1,i,-8,-4,-1,2,1,
O=C(Nc1ccc(Cl)c(S(=O)(=O)N2CCOCC2)c1)c1ccccn1,-9,-5,i,/,11,-2,-1,-3,
O=C(NCc1ccccc1F)C1CCCN1S(=O)(=O)c1ccc(F)cc1 (stereo unspecified),-1,8,i,-9,0,-2,1,-1,
O=C(/C(=C\c1ccccc1)c1nc2ccccc2[nH]1)c1ccc(Cl)cc1,79*,1,i,/,4,-19,-23,-153,
COC(=O)c1ccc(NC(C)=O)o1,-11,-2,i,-17,-8,-2,2,/,
COc1ccc(O)c(C(=O)CC(=O)c2ccc(F)cc2)c1,19,-9,i,-20,4,5,2,/,
Oc1ccccc1N=Cc1sc2ccccc2c1Cl,13,-13,i,/,53,-5,0,-7,eIF4H inh retest=4;PABP FP inh retest=14
O=C(Oc1ccc(N(Cc2cccs2)C2=NS(=O)(=O)c3ccccc32)cc1)c1ccccc1F,11,-10,i,-12,-7,0,-5,8,
C[C@H](NC(=O)C1CC(=O)N(c2ccc3c(c2)OCO3)C1)C(=O)NC1CCCCC1 (stereo partly specified),-20,6,i,-28,9,-4,-2,6,
Cn1c(NCCCO)nc2ccccc21,-7,-12,i,-5,3,-3,-1,-55,
c1ccc(N2CCN(c3ncnc4sc5c(c34)CCC5)CC2)cc1,13,-1,i,-9,-2,-14,-16,/,
CC(=O)c1ccc(N2CCN(C(=O)/C=C/c3ccc(S(=O)(=O)N4CCOCC4)cc3)CC2)cc1,1,8,i,/,0,-3,-17,-8,
CCCc1cc(=O)[nH]c2nnc(SCC(=O)Nc3nnc(CC)s3)n12,/,/,i,-8,/,0,-3,/,
N#CCc1ccc(NC(=O)c2ccc(CN3CCc4ccccc4C3)cc2)cc1,-7,3,i,-8,0,-1,-17,19,
Cc1ccc(OCC(=O)Oc2cccc(C)c2)cc1,-12,/,i,-7,/,-5,-2,11,
Cc1cc(C)n(CC(O)COCc2ccccc2)n1 (stereo unspecified),1,3,i,-4,6,-4,1,11,
Cc1csc(SCCn2c(N3CCN(c4ccccc4)CC3)nc3c2c(=O)[nH]c(=O)n3C)n1,/,0,i,-1,-6,2,2,/,
O=C(CSCc1ccccc1Br)Nc1ccccc1,-3,-2,i,18,5,-3,-4,7,
CC(=NNC(=O)COc1cccc(C)c1)c1cccnc1,-9,/,/,-11,/,0,0,/,
O=C(N/C(=C/c1ccco1)C(=O)N1CCOCC1)c1cccs1,0,24,i,/,14,1,6,7,
# The listing continues:
SMILES,CSC inhib,PABP FP inh,Rce1 inh,UUG fidelity,eIF4H inh,MT1-MMP act inh,MT1-MMP act inh RFP,HIV Env fusion,others
CCc1nc(Sc2nnnn2-c2ccccc2)c2c3c(sc2n1)CCCC3,16,-1,i,/,2,-10,-13,9,
O=C(c1cnn(C(=O)c2ccco2)c1)c1ccccc1O,-11,/,/,16,/,-8,2,7,
O=C(NCCc1ccc(Cl)cc1)C1=CC=CN2CCS(=O)(=O)N=C12,-6,/,/,-10,/,-6,-1,/,
Cc1nnc(NC(=O)C2CCN(S(=O)(=O)c3ccc(Cl)cc3)CC2)s1,-7,1,i,-14,3,-3,3,4,
Cc1cccc(-n2c(SCC(=O)NCC3CCCO3)nc3ccccc3c2=O)c1C (stereo unspecified),3,/,/,-7,/,-3,4,/,
CC(C)(C)NC(=O)COc1ccc(CNCc2cccs2)cc1,26,5,i,-7,-2,-11,3,13,
O=C(c1ccc(Cl)s1)N1CCOCC1,3,0,i,-14,3,1,0,-26,
CCOC(=O)c1ccc(NC(=O)C(CC)(CC)C(=O)OCC)cc1,-2,3,i,12,-6,11,3,-7,
Cc1cc(C(F)(F)F)nn1CC(=O)N(C)c1ccccc1,-2,4,i,/,10,-1,6,3,
COc1ccc(CC(N)c2csc(NC(=O)Nc3ccccc3Oc3ccccc3)n2)cc1 (stereo unspecified),/,/,/,10,/,1,-11,100*,
COc1ccc(-c2csc(NC(=O)C3=COCCO3)n2)cc1OC,/,/,/,-11,/,1,-3,-16,
COc1cc(/C=N/NC(=O)c2cccnc2)ccc1OCC(=O)Nc1ccc(C)cc1,10,3,i,/,-13,3,4,-12,
COc1cccc(C2=NN(S(C)(=O)=O)C(c3cccs3)C2)c1 (stereo unspecified),/,-3,i,/,13,-1,2,-25,
CC(C)c1ccc(O)c(NC(=S)NC(=O)CCc2ccccc2)c1,2,-1,i,5,12,2,3,8,
Cc1nc(N2CCCC2)c2nnn(Cc3ccccc3Cl)c2n1,/,4,i,-8,0,4,-6,26,
COC(=O)c1cn(C(=O)c2ccc(Br)o2)c2ccccc12,28,4,i,-11,2,6,6,/,
CCOc1cc(C(=O)NCCOC)cc(OCC)c1OCC,-21,-6,i,-13,-2,-2,0,/,
Cn1cnc([N+](=O)[O-])c1Sc1ccccc1,6,2,i,-21,-11,3,0,-12,
Cc1cc(C(=O)Nc2ccc3ccccc3c2)c(C)o1,33,-5,i,-20,-3,2,4,-243,
O=C(CCc1nnc(CCCCc2ccccc2)o1)NCc1cccc(F)c1,-1,4,/,-12,-1,2,1,13,
CC(C)(C)c1cnnn1-c1ccc([N+](=O)[O-])cc1,-5,?,i,/,-5,3,3,0,
CC(NC(=O)c1ccc(-c2cc(C(F)(F)F)ccc2Cl)o1)c1ccccc1 (stereo unspecified),0,-9,i,/,-7,-2,2,-9,
COc1ccc2c(c1)O/C(=C\c1ccccc1O)C2=O,-2,/,i,-16,/,-3,-1,-62,
COc1cccc(COC(=O)C2CCN(S(=O)(=O)c3ccc(C)cc3)CC2)c1OC,-2,/,i,9,/,0,1,/,
CC(CCc1ccc(O)cc1)NC(c1ccccc1)c1ccc(Cl)cc1 (stereo unspecified),48,5,i,0,-3,-8,-2,1,
# New compounds follow:
SMILES,CSC inhib,PABP FP inh,Rce1 inh,UUG fidelity,eIF4H inh,MT1-MMP act inh,MT1-MMP act inh RFP,HIV Env fusion,others
O=C(NCCc1cccnc1)C1CCC(=O)N(CCc2cccc(F)c2)C1 (stereo unspecified),/,3,i,0,-9,2,2,13,
Cc1cccc(C(=O)NCCc2n[nH]c(=S)n2C)c1,-25,-2,i,-19,-4,-2,-1,/,
N#C/C(=C\c1ccccc1)C(=O)N1CCC(C(N)=O)CC1,/,-6,i,/,-4,-6,-3,25,
Cc1ccc(NC(=O)C2CCN(S(=O)(=O)c3ccc4c(c3)OCCCO4)CC2)nc1,-4,/,i,3,/,-1,-16,/,
CC(=O)NCCCc1nc2ccccc2n1Cc1c(F)cccc1Cl,12,36,i,-32,?,-12,-6,-21,PABP FP inh retest=34
Cc1ccc(C(=O)Oc2ccc(/C=C3\C(=N)N4N=C(N5CCOCC5)SC4=NC3=O)cc2)cc1,/,14,i,-18,15,1,-2,-20,
COc1ccc(C(=O)C2CCCN(S(=O)(=O)c3ccccc3F)C2)c(C)c1 (stereo unspecified),-6,2,i,-16,2,0,-1,-10,
Nn1c(SCC(=O)NCCN2C(=O)CSC2=O)nnc1-c1ccc(OC(F)F)cc1,-5,/,i,-2,/,-3,4,-1,

# Screening data deposited in PubChem BioAssay by several laboratories.
